# DT40 TDP1 CPT: growth inhibition of DT40 Tdp1-/-;hTDP1 cells with camptothecin (screen for TDP1 inhibitors); hit rate 12% among 420,000; chicken DT40 Tdp1-/-;hTDP1 cells + 20 nM CPT, ATP luminescence, 48 h; Potency, µM (doses to about 46.2 µM), for the others: at the top dose activity change, negative = growth inhibition, actives largely listed as inhibitors; note: nearly all actives have a fitted effect of over 55% in size
#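 Chicken DT40 Tdp1-/- cells stably complemented with human TDP1 were seeded at 400 cells/well in medium containing 20 nM camptothecin, exposed to pin-transferred compounds, and grown at 37 °C for at least 48 hr. Viability was read as ATP luminescence.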
# N370S GC: inhibits or activates N370S mutant glucocerebrosidase. N370S GC spleen homogenate, 4MU-glucoside fluorescence. Potency, µM (highest dose often 59.4 µM), for inactives: at the top dose activity change, negative = inhibition, most hits filed as inhibitors. hit rate 0.092% among 330,000. AID 2101;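 note: 0% = full enzyme activity and -100% = no enzyme basal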
# Starred values were filed as active, the others as inactive; ? = inconclusive; . = no result given; & = joins results of further samples. Calls come from the whole dose curve; as a rule, active = well fitted curve in the direction sought with a large enough effect; inconclusive = small, poorly fitted or top-dose-only effect, or another doubt; inactive = no such curve, though single readings can be large; an effect the other way counts as inactive or inconclusive. Unless noted, % is set by controls: 0 for no effect and ±100 for the full control effect; potency is the fitted concentration of half-maximal effect. This is a subset, and most or all hits are left out here.
# Values run as follows: DT40 TDP1 CPT, N370S GC
Cc1occc1-c1nnc(SCC(=O)N2CCN(c3ccc(F)cc3)CC2)n1C
→ -14%, -1%
CCCS(=O)(=O)C(=C(Nc1ccc(OC)cc1)Nc1ccc(OC)cc1)S(=O)(=O)CCC
→ ?, 9%
CCN1CCN(S(=O)(=O)c2ccc(F)c(C(=O)Nc3c(F)cc(F)cc3Br)c2)CC1
→ -16%, -5%
Cc1ccc(C(=O)c2ccc(N3CCN(C)CC3)c([N+](=O)[O-])c2)cc1
→ 18µM*, -18%
COc1cc(CCC(=O)OCC(=O)Nc2nc(C)c(Cl)cc2Cl)cc(OC)c1OC
→ -11%, 4%
C/C(=N\NC(=S)NC(C)C)c1ccc(C(C)(C)C)cc1
→ 23µM*, 5%
CC(C)NS(=O)(=O)c1ccc(OCC(=O)Nc2cccc(F)c2)cc1
→ ?, -15%
CC(C)C(NC(=O)C1CCCCC1)C(=O)NCCc1ccccc1 (stereo not given)
→ -7%, 9%
O=C(NCCN1CCCCC1)c1c(O)c2ccccc2[nH]c1=O
→ -26%, -18%
CC1COc2ccccc2N1C(=O)c1ccc(Cl)cc1 (stereo not given)
→ -7%, -10%
COc1cccc(CNC(=O)CN2CCCN(Cc3ccccc3)S2(=O)=O)c1
→ -16%, .
Cc1ccc2c(CC(=O)OCC(=O)Nc3ccc(Cl)cn3)coc2c1
→ 5%, 0%
O=[N+]([O-])c1cccc(S(=O)(=O)N2CCN(c3ccccn3)CC2)c1
→ 1%, -16%
COc1ccc(CCNC(=O)CN(c2ccc(OC)c(OC)c2)S(=O)(=O)c2ccccc2)cc1OC
→ -9%, 1%
Cc1[nH]nc2nc(SCC(=O)NCC3CCCO3)n(-c3ccc(Br)cc3)c(=N)c12 (stereo not given)
→ 15µM*, 6%
C=CCn1c(-c2ccccc2OC)n[nH]c1=S
→ -25%, 0%
CSc1ccc(C(=O)C2CCCN(C(=O)c3cccc(N4CCOCC4)c3)C2)cc1 (stereo not given)
→ ?, -9%
CN(C(=O)CSc1nnc2n1CCCCC2)C1(C#N)CCCCC1
→ -14%, .
COc1ccc(-c2ccc(-c3noc(C)n3)c(OC)n2)cc1
→ -12%, 5%
S=c1[nH]nc(-c2ccccc2)n1C1C=CCCC1 (stereo not given)
→ -3%, 2%
Fc1cc(F)nc(NCc2ccccc2)n1
→ 13%, -6%
CCOCCc1c(O)nc(SCCOc2ccc(C)c(C)c2)[nH]c1=O
→ 2%, 5%
Cc1nc(NC(=O)COC(=O)CCC(=O)c2cccs2)c(Cl)cc1Cl
→ 0%, 1%
COc1ccc(C2CC(c3cccs3)=NN2c2ccc(C=O)cc2)cc1 (stereo not given)
→ -4%, -1%
C=CCOc1ccc(C2/C(=C(\O)c3ccc(F)cc3)C(=O)C(=O)N2CCCN(C)C)cc1 (stereo not given)
→ -6%, 8%
CCN(Cc1ccncc1)C(=O)CCc1nnc(CCC2CCCCC2)o1
→ ?, 16%
CC(Sc1ccccc1)C(=O)NN=C1CCCCCCC1 (stereo not given)
→ 14%, 2%
Cc1ccc(Nc2nc(Oc3ccc(=O)[nH]n3)nc(N(C)C)n2)cc1
→ -3%, 4%
COC(=O)c1ccsc1NS(=O)(=O)c1ccccc1
→ -13%, -3%
Cc1c(C2=CCN(S(=O)(=O)c3ccc(Br)cc3)CC2)c2ccccc2n1C
→ ?, -9%
C/C(=N\NC(=O)C(=O)Nc1cc(Cl)ccc1Cl)c1ccncc1
→ 7%, -1%
CN(N=Nc1cccc([N+](=O)[O-])c1)c1cccc([N+](=O)[O-])c1
→ -28%, 23%
COc1ccccc1CNC(=O)COC(=O)c1ccc(C)c(S(=O)(=O)N2CCOCC2)c1
→ -4%, 2%
COc1ccc(S(=O)(=O)N2CCOCC2)cc1NC(=O)[C@@H]1CCCN1C(=O)c1cccs1
→ -2%, -9%
CCN(CC)C(=O)C1CCCN(C(=S)Nc2cccc3ccccc23)C1 (stereo not given)
→ -6%, -9%
Cc1ccc(C)c(/C(O)=C2\C(=O)C(=O)N(CCCn3ccnc3)C2c2cccnc2)c1 (stereo not given)
→ -7%, -2%
COc1ccccc1NC(=O)N1CCN(c2cc(-c3ccccc3)nc3ncnn23)CC1
→ 4.6µM*, 2%
COc1ccc(CNC(=O)c2ccccc2NC(=O)C2=CSCCO2)c(OC)c1
→ ?, -13%
COc1c(O)cccc1/C=N/NC(=O)Cn1ccnc1C
→ ?, -3%
Cc1cc(Nc2nnnn2-c2ccccc2)n(-c2ccc(Cl)cc2)n1
→ ?, 2%
COC(=O)NNC(=O)c1ccc(Cl)cc1Cl
→ -26%, -14%
COc1ccc(CC(=O)Nc2cccc(C)n2)cc1OC
→ -9%, 6%
CCNc1nc(Oc2ccc(C(=O)OCC)cc2)nc(SC)n1
→ ?, 0%
O=C(COC(=O)CNC(=O)c1ccc(Cl)cc1)Nc1ccc2c(c1)OCCO2
→ -20%, 10%
Cc1ccc(C)c(NS(=O)(=O)c2cc(C(=O)NCc3ccco3)ccc2C)c1
→ -13%, 4%
C/C(=N\NC(=O)CC#N)C1COc2ccccc2O1 (stereo not given)
→ ?, -5%
COc1ccc(CCn2c(=O)[nH]c3cc(C(=O)N4CCN(c5ccccn5)CC4)ccc3c2=O)cc1OC
→ 8%, 2%
CCOC(=O)N1CCN(CC(=O)N2c3ccccc3CCc3ccccc32)CC1
→ -18%, -22%
COc1ccc(C(=O)CCN2CCCCCC2)cc1
→ 3.2µM*, -1%
Cc1cccc(Cn2nc(C(C)(C)C)cc2C(=O)N2CCOCC2)c1
→ 4%, 5%
COc1ccc(C(=O)CSc2nnc3ccccn23)cc1OC
→ -1%, 9%
Cc1c(Cl)cccc1NC(=O)CNC(=O)c1ccc2c(c1)OCCO2
→ 3%, .
O=C(COc1ccccc1Cl)Nc1ccc(S(=O)(=O)Nc2ccccn2)cc1
→ ?, -8%
CS(=O)(=O)N1CCC(C(=O)Nc2ccc(Oc3ccccc3)cc2)CC1
→ -28%, -6%
CC1CCN(CC(=O)n2c3c(c4ccccc42)CCCC3)CC1
→ ?, -6%
COc1c(C)cc(C(=O)C2CCCN(C(=O)c3cccc(-n4cccn4)c3)C2)cc1C (stereo not given)
→ ?, 6%
Cc1ccc(NC(=O)CSc2nc(NS(=O)(=O)c3ccc(C)cc3)cc(=O)[nH]2)cc1
→ -24%, 2%
COc1cccc(C(=O)NCCS(=O)(=O)NCCc2ccc(OC)c(OC)c2)c1
→ -21%, -6%
CN(C)C(=O)CCCc1nc(-c2ccc(Cl)cc2)no1
→ ?, 3%
CCN(CC)CCNC(=O)c1ccc(NC(=O)c2ccc(S(=O)(=O)N(C)c3ccccc3OC)cc2)cc1
→ -4%, .

# Next entries.
# Values run as follows: DT40 TDP1 CPT, N370S GC
O=C(CCS(=O)(=O)c1ccc(Cl)cc1)N1CCN(c2ccccc2F)CC1
→ -28%, ?
CCCN1Cc2cccc(C(=O)NC(C)c3cccs3)c2C1=O (stereo not given)
→ -19%, -16%
O=C(CCN1C(=O)C2CCCCC2C1=O)Nc1ccc(Br)cc1F (stereo not given)
→ -19%, 0%
C/C(=N/NS(=O)(=O)c1ccc(C)c(C)c1)c1ccncc1
→ -10%, 1%
NCC12CC3CC(C1)CC(c1ccc(Cl)cc1)(C3)C2
→ 6.5µM*, -28%
CCCCOc1ccc(C(=O)NCCC(=O)NCCCC(=O)OCC)cc1
→ -9%, -4%
CNC(=S)N(Cc1cccs1)Cc1cc2ccc(OC)cc2[nH]c1=O
→ ?, -2%
CCn1cc(C(=O)N(C)c2cc(C)ccc2OC)c2cc(OC)c(OC)cc2c1=O
→ -17%, -9%
CCOc1ccc(CC(=O)C2C(=O)CC(C)(C)CC2=O)cc1OCC
→ 5%, 3%
Cc1ccc(SCCN2CCN(C)CC2)cc1
→ 14%, 0%
CC(C)(C)NC(=O)NC(=O)COc1ccccn1
→ -10%, -21%
COCc1cc(N2CCCCC2)nc(-c2ccccc2)n1
→ 10µM*, -5%
CN1CCN(C(=O)C2CCCN(S(=O)(=O)c3ccc(F)cc3)C2)CC1 (stereo not given)
→ 10%, 7%
CN1[C@@H]2CC[C@H]1CC(OC(=O)c1c[nH]c3ccccc13)C2 (stereo not given in full)
→ -25%&1%, -7%
COc1ccc(C2C3(C#N)C(N)=NC(OC)(OC)C23C#N)cc1 (stereo not given)
→ -14%, 10%

# (list continues)
SMILES | DT40 TDP1 CPT | N370S GC
c1ccc2c(-c3csc(-c4ccncc4)n3)c[nH]c2c1 | 18µM* | 13%
COC(=O)c1cccc(-n2c(=O)n(Cc3ccccc3)c(=O)c3[nH]cnc32)c1C | 21% | -21%
CC(NC(=O)COC(=O)Cn1cnc2ccccc2c1=O)C1CC2CCC1C2 (stereo not given) | -61% | 2%
COc1ccc(CC(NC(C)=O)C(=O)NC2CCN(S(=O)(=O)c3ccc(NC(C)=O)cc3)CC2)c(OC)c1 (stereo not given) | 26% | -4%
N#Cc1ccccc1OCC(=O)NCC1(N2CCCCC2)CCCCC1 | 7% | -11%
COc1ccc2c(c1)N1CCN=C1N2C | -3% | -2%
CCOC(=O)N1CCN(S(=O)(=O)N2CCCC(C(=O)NCCc3ccc(OCC)c(OCC)c3)C2)CC1 (stereo not given) | 3% | -3%
COc1ccc(N(CC(=O)NCc2ccccc2)S(=O)(=O)c2c(C)nn(C)c2C)cc1 | -16% | -17%
COc1ccccc1CCC(=O)Nc1ccc2c(c1)CN(CCCn1cccn1)CC2 | -22% | -4%
O=C(CSc1nc2ncccc2[nH]1)Nc1ccccc1-c1ccccc1 | ? | -9%
CCC1S/C(=N/N=C/c2ccco2)N(Cc2ccccc2)C1=O (stereo not given) | -1% | ?
COc1ccc(CCN(C)c2ncnc3sccc23)cc1OC | ? | -5%
O=C(CCN1CCCC1)Nc1ccc(Br)cc1 | ? | 2%
COc1ccc(C2C(C(=O)NCc3cccnc3)c3cc(OC)c(OC)cc3C(=O)N2C)cc1 (stereo not given) | -18% | -8%
CC1CN(CCCOc2ccccc2[N+](=O)[O-])CC(C)O1 (stereo not given) | -27% | 19%

# Among those listed so far, 8 contain fluorine.
SMILES | DT40 TDP1 CPT | N370S GC
Cc1occc1-c1nnc(SCC(=O)N2CCN(c3ccc(F)cc3)CC2)n1C | -14% | -1%
CCN1CCN(S(=O)(=O)c2ccc(F)c(C(=O)Nc3c(F)cc(F)cc3Br)c2)CC1 | -16% | -5%
CC(C)NS(=O)(=O)c1ccc(OCC(=O)Nc2cccc(F)c2)cc1 | ? | -15%
Fc1cc(F)nc(NCc2ccccc2)n1 | 13% | -6%
C=CCOc1ccc(C2/C(=C(\O)c3ccc(F)cc3)C(=O)C(=O)N2CCCN(C)C)cc1 (stereo not given) | -6% | 8%
O=C(CCS(=O)(=O)c1ccc(Cl)cc1)N1CCN(c2ccccc2F)CC1 | -28% | ?
O=C(CCN1C(=O)C2CCCCC2C1=O)Nc1ccc(Br)cc1F (stereo not given) | -19% | 0%
CN1CCN(C(=O)C2CCCN(S(=O)(=O)c3ccc(F)cc3)C2)CC1 (stereo not given) | 10% | 7%

# Further results follow:
SMILES | DT40 TDP1 CPT | N370S GC
CC(=O)C1(O)C(C)CC2C3CCC4CC(O)CCC4(C)C3=CCC21C (stereo not given) | -8% | -8%
COc1cccc(N2CCN(C(c3ccccn3)c3nnnn3C(C)(C)C)CC2)c1 (stereo not given) | 2% | 0%
CCOc1ccc(C(=O)C(c2ccccc2)N2CCOCC2)cc1 (stereo not given) | -16% | -5%
O=C(NCC1CCN(Cc2ccccc2Cl)CC1)Nc1ccccc1F | 7% | -7%
CCc1ccccc1NC(=O)CN(C)C(=O)CSc1nc2cc(Cl)ccc2s1 | 6% | 13%
COc1ccc(OC)c(/C=C/C(=O)N2CCN(S(=O)(=O)c3cc(C)ccc3C)CC2)c1 | -25% | .
CS(=O)(=O)c1ccc2sc(NC(=O)c3cc4ccccc4o3)nc2c1 | ? | -13%
NC(=O)C1CCN(C(=O)C2CCC(=O)N(CC3CCCCC3)C2)CC1 (stereo not given) | 2% | -4%
CC(C)CNC(=O)c1ccc(NC(=O)c2cccs2)cc1 | -20% | -2%
CCOC(=O)N1CCN(C(=O)c2ccc3c(=O)n(-c4ccc(F)cc4)c(=S)[nH]c3c2)CC1 | ? | 1%
CCOc1ccc(-c2nn3c(-c4ccccc4)nnc3s2)cc1 | ? | 2%
S=C(NCC1CCCO1)n1nnc2ccccc21 (stereo not given) | ? | -1%
O=C(CN1C(=O)NC2(CCCC2)C1=O)OCCOc1ccc(Cl)cc1 | ? | -10%
Cn1nc(C(=O)N2CCC(C(N)=O)CC2)c2c1-c1ccccc1SC2 | ? | 1%
CC(=O)c1nc(N2C(=O)CC(Cc3ccccc3)C2=O)sc1C (stereo not given) | -13% | 5%
CC(CCc1ccccc1)NC(=O)CSc1nc(N)cc(N)n1 (stereo not given) | -16% | -5%
C=CCn1c(=O)c(C(=O)OCC)c(O)c2ccccc21 | -21% | 2%
Cn1cc(Br)c(C(=O)Nc2ncc(Br)s2)n1 | -7% | 2%
CCN1CCN(c2c(Cl)cccc2NC(=O)c2cccs2)CC1 | -23% | 0%
CCc1cc(=O)oc2cc(C)cc(OCC(=O)N3CCC(C(=O)O)CC3)c12 | 7% | 2%
Cc1cccn2c(=O)c(/C=C(\C#N)C(N)=O)c(N3CCN(c4ccccc4)CC3)nc12 | ? | 6%
COc1cccc(/C=C/C(=O)N(C)CC(=O)Nc2ccc(Cl)c(C(F)(F)F)c2)c1 | ? | 1%
Cc1ccc(N2CC(=O)N(NC(=O)CN3CCN(c4ccccc4)CC3)CC2=O)cc1 | 10% | 2%
Cc1ccc(S(=O)(=O)N(CC(=O)O)Cc2ccccc2)cc1 | -20% | 3%
Cc1nnc(SCC(=O)N2CCN(Cc3ccccc3)CC2)s1 | 0% | 14%
